AID504770: E. coli YBA685 growth inhibition, screen for V. cholerae RctB inhibitors. E. coli YBA685 rctB-dependent plasmid, OD600 growth, 3 h; stronger effect = lower value. z-score (concentration not given with the values). actives 0.27% (n = 130,000);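 active = z-score under -2 on both plates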;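 note: wells of about 30 µL received 100 nL stock; score is relative to mean and SD of the test wells; the first replicate is given; strong numbers were not always called active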
Ba CapD inh: inhibitors of Bacillus anthracis CapD enzyme. actives 0.23% (n = 140,000). z-score (no concentration beside the values). AID 492967. purified CapD enzyme, fluorescence intensity read-out; stronger effect = lower value; some hits fall short of the stated cut;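 active = z-score under -4 in either of two replicates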;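 note: stock transfer was 100 nL into about 40 µL; score is relative to mean and spread of the plate; one replicate is shown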
* hit, by the source's call; . = not tested or not shown.

SMILES | AID504770 | Ba CapD inh
O=C(O)c1cnc(-c2ccccc2)nc1-c1ccncc1 | -0.4 | 0.12
COc1cc(N)c(Cl)cc1C(=O)OCC(=O)NC1(C#N)CCCCC1 | 1.3 | .
O=C(Cc1ccccc1)c1c[nH]c(C(=O)NCCc2ccccn2)c1 | 1.1 | 0.06
O=C(NCCc1ccccc1)c1cnn2ccccc12 | -0.95 | 25
COC(=O)Nc1ccc(S(=O)(=O)N2CCC(C(=O)Nc3ccc4c(c3)OCO4)CC2)cc1 | . | 0.01
CC1(C)OC(=O)C(=C2C3CC4CC(C3)CC2C4)C(=O)O1 | 1 | -1.3
CC(=O)OCc1ccccc1Sc1ccc(Cl)cc1C(=O)O | 0.45 | 0.55
S=C(NC1CC1)NC1CCCc2ccccc21 (configuration not stated) | -0.55 | .
COC(=O)C1C(c2ccccc2)C(C(=O)OCc2ccccc2)C1c1ccccc1 (configuration not stated) | -0.9 | -0.28
CCOC(=O)C(CCC(=O)O)(CCC(=O)O)C(C)=O | . | -0.16
CC(C)(C)OC(=O)C1C(=O)CC(C)(O)C(C(=O)OC(C)(C)C)C1/C=C/c1ccccc1 (configuration not stated) | 1.6 | -0.33
COC(=O)Cn1ncc2c3ccccc3n(Cc3cc(C)ccc3C)c2c1=O | 0.6 | 8.4
N=C1C(c2ccccc2)=C(O)CN1c1ccc(S(=O)(=O)N2CCOCC2)cc1 | -0.25 | .
CCOC(=O)N1CCC(NS(=O)(=O)c2csc(C(N)=O)c2)CC1 | -0.35 | 0.56
N#CC1=C(SCC(=O)N(c2ccccc2)c2ccccc2)NC(=O)CC1c1ccccc1F (configuration not stated) | -0.65 | -0.35
COCC(=O)NCCc1nc2ccccc2n1C | -0.5 | 0.065
N=c1c(S(=O)(=O)c2ccccc2)cc2c(=O)n3ccccc3nc2n1C1CCCC1 | 1.3 | -0.23
CCc1ccc2c(c1)=C(c1sc(N)nc1O)C(=O)N=2 | 2.2 | 1.5
Cc1cccc(OCC(=O)N(Cc2ccccc2)c2ccccn2)c1C | 0.15 | 0.48
O=C(NCCOc1ccc(F)cc1)c1ccccc1-c1ccccc1 | -0.6 | 0.03
CNC(=O)COC(=O)c1ccc(Br)o1 | -0.65 | .
O=C1/C(=C/c2c[nH]c3ccccc23)COc2ccccc21 | 2.2 | -0.22
O=C1CC(C(=O)c2ccccc2)N=C(N2CCOCC2)N1 (configuration not stated) | 1.4 | -0.55
O=c1oc2ccc([N+](=O)[O-])cc2cc1-c1nnc(Nc2ccc(F)cc2F)s1 | . | -0.21
O=C(/C=C/c1nc2ccccc2s1)N1CCN(C(=O)C2CCCO2)CC1 (configuration not stated) | -0.25 | .

Compound profiles, from the list above:
Results for Cc1cccc(OCC(=O)N(Cc2ccccc2)c2ccccn2)c1C = AID504770 = 0.15; Ba CapD inh = 0.48
Results for O=c1oc2ccc([N+](=O)[O-])cc2cc1-c1nnc(Nc2ccc(F)cc2F)s1 = AID504770 = .; Ba CapD inh = -0.21
Results for CCOC(=O)C(CCC(=O)O)(CCC(=O)O)C(C)=O = AID504770 = .; Ba CapD inh = -0.16

New compounds follow
SMILES | AID504770 | Ba CapD inh
CCOc1ccc(NC(=O)COc2nsnc2N2CCOCC2)cc1 | -0.65 | .
CCn1c(=O)c2sccc2n2c(CCCC(=O)Nc3ccccc3)nnc12 | 1.6 | -0.69
N#C/C(=C\c1cccs1)C(N)=O | -0.35 | -3.2
CCOC(=O)C(=CNc1ccccc1F)C(=O)OCC | . | 0.15
CS/C(=N\S(=O)(=O)c1ccccc1)Nc1cccc(SC)c1 | . | 0.22
CNC(=O)NC(=O)C(C)Oc1ccc(NC(=O)c2ccccc2OC)cc1 (configuration not stated) | -1.1 | .
CN1CCN(NC(=O)c2ccccc2Nc2ccc(SC(F)F)cc2)CC1 | 0.8 | .
COc1ccc(Cl)cc1N(CC(=O)N1CCCCCC1)S(=O)(=O)c1ccc(C)c([N+](=O)[O-])c1 | . | 0.065
N#C/C(=C\Nc1ccccc1O)c1nc2ccccc2o1 | 0.85 | .
CC1CN(S(=O)(=O)c2ccc(Br)cc2OC(F)(F)F)CCN1c1ccc(Cl)cc1 (configuration not stated) | . | -0.43
CCCNc1nc2ccccc2n2cnnc12 | 1.3 | 0.94
Cc1ccccc1C1N2CC3(C)CN1CC(C)(C2)C3O (configuration not stated) | . | -0.65
Cc1cc(O)c(C(=O)Cc2ccccn2)c(O)c1 | -0.2 | 0.58
CCn1c(=S)[nH]c2ccc(Br)cc2c1=O | 0.55 | -0.47
CN1C(=O)/C(=C/c2ccc(C(=O)OCCN3CCOCC3)cc2)SC1=S | 0.1 | .
CCOC(=O)c1c(C)oc(NC(=O)CSc2nc(Cc3ccccc3)c(C)[nH]2)c1C(=O)OCC | -0.95 | .
CCNC(=O)C12CCC(C)(C(=O)O1)C2(C)C (configuration not stated) | -0.65 | .
CCC(=O)N1N=C(c2ccco2)CC1c1cn(-c2ccccc2)nc1-c1ccc(OC)cc1 (configuration not stated) | 1.2 | .
CCC(=O)NC(Nc1cc(C)ccn1)(C(F)(F)F)C(F)(F)F | 0.35 | 0.12
O=C(COC(=O)/C=C\c1ccco1)Nc1ccc(OC(F)(F)F)cc1 | 1.8 | -0.52
COc1ccccc1Oc1ncnc2scc(-c3ccc(F)cc3)c12 | 0.15 | -0.68
O=C(COc1ccc(OCc2ccccc2)cc1)NC1CN2CCC1CC2 (configuration not stated) | 0.15 | .
COC(=O)C1=C(C)NC2=C(C(=O)CC(c3ccc(Cl)cc3)C2)C1c1cc(OC)c(OC)c(OC)c1 (configuration not stated) | . | 31
c1ccc(SCc2cc(-c3ccccc3)no2)cc1 | -0.95 | -0.42
CCc1c(O)nc(SCc2ccccc2)n(C2CCCCC2)c1=O | -0.7 | 0.045
SMILES | AID504770 | Ba CapD inh
COc1ccc(OCCC(=O)Nc2ccc3[nH]c(=O)[nH]c3c2)cc1 | 0.5 | .
COc1ccc(NC(=O)c2cc(-c3ccccc3)oc2-c2ccc(C(F)(F)F)cc2)cc1 | . | 9.4
Clc1ccc(-c2csc3ncnc(NCCCN4CCOCC4)c23)cc1 | . | 0.17
CN(C)/C=N/c1nnc(Sc2nc3c(Cl)cc(Cl)cc3s2)s1 | . | 0.74
Cc1ccc(C(=O)Nc2nnc(SCc3ccccc3)s2)cc1 | -0.75 | -0.65
CCCN(CCC)S(=O)(=O)c1ccc(CC)cc1 | -0.8 | -0.14
Cc1nc2c(cc1C(=O)N/N=C/c1c[nH]c3ccccc13)c(=O)n(C)c(=O)n2C | -0.45 | 0.17
CC1(C)CC(=O)c2sc(NC(=O)CSc3nc4ccccc4[nH]3)nc2C1 | . | 0.24
O=S(=O)(Nc1nccs1)c1ccc(Nc2nnc(-c3ccccc3)c3ccccc23)cc1 | . | 1
CC(C)(O)C#Cc1ccc(COC(=O)NNC(=O)c2ccc3nsnc3c2)cc1 | . | 0.16
Cc1cc2nc(CSc3nnc(N)s3)cc(=O)n2o1 | 1.6 | -0.16
N#Cc1ccc(CCOC(=O)NCc2ccc(-c3csnn3)cc2)cc1 | . | -0.88
O=C1C[C@H]2[C@H](CO)[C@@H](OC(=O)c3ccc(-c4ccccc4)cc3)C[C@H]2O1 | -0.35 | 0.7
Cc1nccn1CC(=O)N/N=C/c1cccn1C | -1.1 | .
Cc1cc(C)cc(NC(=O)Cn2c(=O)c3cccn3c3ccccc32)c1 | -0.1 | 0.32
CC(=O)Nc1ccc(S(=O)(=O)N(C)CC(=O)OCc2c(C)noc2C)cc1 | 1.1 | .
NS(=O)(=O)c1ccc(N2CCCC2c2ccc3c(c2)OCCCO3)nc1 (configuration not stated) | -0.55 | .
CCS/C=C(/NC(=O)c1ccc(C)cc1)[P+](c1ccccc1)(c1ccccc1)c1ccccc1 | . | -0.21
O=C(/C=C/c1ccccc1)N1CCC(c2nc(-c3ccncc3)no2)CC1 | . | -0.19
Cc1ccc(-c2n[nH]c3c2C(c2ccc(F)cc2)N(c2ccc(F)cc2)C3=O)cc1 (configuration not stated) | . | -0.58
O=C(N/N=C/c1cccc(F)c1)c1ccccc1CCc1ccccc1 | . | -0.23
Cc1cccc(NC(=O)CSC2=C(C#N)C(c3ccccc3C)C3=C(CCCC3=O)N2)c1 (configuration not stated) | 0.05 | -0.27
CC(C)(SC1CC(=O)N(c2ccccc2)C1=O)C(N)C(=O)O (configuration not stated) | 1.1 | .
FC(F)(F)c1cccc(C=NCc2ccc(-c3cccs3)s2)c1 | -0.4 | 4.1
COc1cc(/C=C2/N=C(C3CCCCC3)OC2=O)cc(Br)c1OC(C)=O | . | 3.4

In another format: results already given
canonical_smiles	AID504770	Ba CapD inh
FC(F)(F)c1cccc(C=NCc2ccc(-c3cccs3)s2)c1	-0.4	4.1
COc1ccc(NC(=O)c2cc(-c3ccccc3)oc2-c2ccc(C(F)(F)F)cc2)cc1	.	9.4

(next part)
SMILES | AID504770 | Ba CapD inh
CCOc1ccc(CCNC(=O)Cn2ncn3nc(-c4cccs4)cc3c2=O)cc1OCC | -0.55 | 0.36
N#CCn1c(CSc2nc3ccccc3c(=O)n2CCC2=CCCCC2)nc2ccccc2c1=O | 0.95 | .
Cc1ccc(Cn2cc(CCC(=O)NC(C)C)c3ccccc32)cc1 | -2.5 | 0.26
CN(C)c1ccc(-n2cccc2/C=C2/SC(=Nc3ccc(F)cc3)NC2=O)cc1 | . | 0.26
O=C(CNC(=O)C1CCCCC1)Nc1ccccc1N1CCOCC1 | 0.15 | .
C=C(C)Cn1c(SCC(N)=O)nc2c(c1=O)C1(CCCC1)Cc1ccccc1-2 | 0.35 | 5.9
CC1CCCCN1C(=O)CCNC(=O)Cn1cnc2ccccc2c1=O (configuration not stated) | -0.2 | 0.23
COc1ccc(OC(C)c2nc(-c3ccc(OC)cc3)no2)cc1 (configuration not stated) | -1.3 | 0.77
O=C(NC(=S)N1CCN(c2ccccc2O)CC1)C12CC3CC(CC(C3)C1)C2 | 0.65 | .
CN(CCc1ccccn1)Cc1ccncc1 | 0.25 | -0.76
CSc1nc(N)c(C#N)c(Cc2ccccc2)c1C#N | 1.8 | .
COc1cc(C(=O)OCC(=O)c2ccccc2)cc(OC)c1OC | . | -0.01
CCOC(=O)N1CCN(C(=O)CN(Cc2ccc(F)cc2)S(=O)(=O)c2ccc(C)cc2)CC1 | -0.5 | .
Cc1cc(OCc2c(F)cccc2Cl)c2c3c(c(=O)oc2c1)CCCC3 | -0.15 | -0.7
C=CCN1C(=O)NC(=O)/C(=C/c2ccco2)C1=O | -0.75 | -0.03
COc1ccc(COC(=O)C2=C(C)NC3=C(C(=O)CC(C)(C)C3)C2c2cc3c(cc2Br)OCO3)cc1 (configuration not stated) | . | 19
O=C1NC(=S)NC(=O)C1=Cc1cc(Br)ccc1OCc1ccc(Cl)cc1 | . | -0.21
CC(Sc1nnc(C(F)(F)F)n1N)C(=O)N(C)C1CCCCC1 (configuration not stated) | -0.6 | .
CCOc1ccc(C(=O)Nc2sccc2C#N)cc1 | -0.85 | 1.5
COc1ccc(CC(=O)c2ccc(OC)cc2O)cc1 | 0.65 | 0.13
COc1ccc(Cl)cc1NC(=O)c1sc2nc(C)nc(N3CCN(C)CC3)c2c1C | . | 0.13
O=C(CN1C(=O)/C(=C\c2ccccc2F)Oc2ccccc21)NC1CC1 | -0.1 | 16
CC(C)OC(=O)CSc1nnc(-c2ccc(O)cc2)o1 | 0.15 | .
CC1CCN(C(=O)c2cc3nc(-c4ccco4)cc(C(F)(F)F)n3n2)C2CCCCC12 (configuration not stated) | -0.35 | 5.4
CCOP(=S)(NC(C)(C)C)OCC | 1 | -0.42
SMILES | AID504770 | Ba CapD inh
CCn1c(SCC(=O)N2CCCc3ccccc32)nnc1-c1cccs1 | -0.95 | 0.16
O=C1CCCC(O)=C1C=Nc1ccc(Cl)c(Cl)c1 | -0.6 | 0.29
O=C(NCCS(=O)(=O)Cc1cc2cccc3c2n(c1=O)CCC3)c1c(F)cccc1F | . | 1.2
Brc1ccc(C2Nc3cccc4cccc(c34)N2)cc1 | . | 0.58
Cc1cc2c(cc1C)N(C(=O)C(C)C)C(C)(C)c1ssc(=S)c1-2 | . | -0.34
COc1ccc(-c2nnc(SCC(=O)NC(N)=O)n2C2CCCCC2C)cc1 (configuration not stated) | -0.25 | .
CC(=O)N(Cc1cc2ccccc2[nH]c1=O)c1ccccc1 | 1.9 | .
CN1C(=O)CC(C(=O)O)SC1=Nc1cccc(C(F)(F)F)c1 (configuration not stated) | -2.1 | .
O=C(c1ccco1)N1CCN(Cc2nc3ccccc3[nH]2)CC1 | -0.25 | .
C=CCNC(=O)c1cc2sccc2n1Cc1ccccc1 | -0.75 | .
O=C(OCC#Cc1ccccc1)N1CCN(c2ccccc2F)CC1 | . | 1
C/C(=N\NC(=O)c1nnn(-c2nonc2N)c1CN1CCCCCC1)c1ccc(Br)cc1 | . | -0.12
O=c1[nH]c2cc3nc(C(F)(F)F)[nH]c3cc2[nH]1 | -0.3 | 0.89
O=C(O)C1CCN(C(=O)OCC2c3ccccc3-c3ccccc32)CC1 | -0.3 | 1.4
O=C(Nc1cccc(F)c1)Nc1ccon1 | 0.35 | -0.11
CCOc1ccccc1NC(=O)c1cc([N+](=O)[O-])ccc1N1CCN(CC)CC1 | . | -0.52

A second format for 4 compounds above:
> C=CCNC(=O)c1cc2sccc2n1Cc1ccccc1
  AID504770: -0.75	Ba CapD inh: .

> O=C(Nc1cccc(F)c1)Nc1ccon1
  AID504770: 0.35	Ba CapD inh: -0.11

> O=C(c1ccco1)N1CCN(Cc2nc3ccccc3[nH]2)CC1
  AID504770: -0.25	Ba CapD inh: .

> O=C(O)C1CCN(C(=O)OCC2c3ccccc3-c3ccccc32)CC1
  AID504770: -0.3	Ba CapD inh: 1.4

High-throughput results as filed in PubChem.
